From PubChem
MT1-MMP reporter: MT1-MMP gene expression reporter suppression – cell-based, luciferase reporter, luminescence (AID 618); MT1-MMP promoter luciferase reporter cells, luminescence; calls from a first round at 10 µM; hits with a dose series show EC50 in µM; 0.62% of 87,000 active;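 active means over half of the reporter light lost at 10 µM or EC50 under 50 µM; inactive means the rest and hits that failed the dose series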;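 further: actives suppress MT1-MMP promoter-driven transcription so potencies describe inhibitors; HT1080 fibrosarcoma cells; overnight exposure; toxic or luciferase-blocking compounds were not removed from the actives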
Hsc70: small molecules displacing fluorescent ligand from Hsc70 – biochemical, fluorescence polarization, primary screen (AID 568). Hsc70 fluorescence polarization, probe displacement; higher % means a stronger effect; strong numbers were not always called active. displacement, % at 20 µM; hits with a dose series show IC50 in µM. 83,000 tested, under 10 active;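 active means displacement above 50% without optical interference and an IC50 on retest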;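 further: ATPase domain with a fluorescein-tagged ATP probe; 0% = vehicle and 100% = excess ADP; read after one hour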
WNV protease inh: blocks West Nile virus NS2B-NS3 protease activity; P06935; WNV NS2B-NS3 protease, fluorogenic substrate Ex360/Em465; active compounds read low; z-score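 (tested at a level between 10 and 100 µM)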; 0.18% of 65,000 active; AID 577;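 active means z-score at -3 or under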;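 further: score is relative to mean and spread of the compound wells of a plate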
Target sequence (P06935 1371-1501 limits assumed): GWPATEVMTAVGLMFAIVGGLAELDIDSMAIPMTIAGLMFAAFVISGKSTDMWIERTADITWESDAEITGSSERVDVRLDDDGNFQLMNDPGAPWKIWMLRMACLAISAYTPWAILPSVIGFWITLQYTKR
Target sequence (P06935 1502-1679 limits assumed): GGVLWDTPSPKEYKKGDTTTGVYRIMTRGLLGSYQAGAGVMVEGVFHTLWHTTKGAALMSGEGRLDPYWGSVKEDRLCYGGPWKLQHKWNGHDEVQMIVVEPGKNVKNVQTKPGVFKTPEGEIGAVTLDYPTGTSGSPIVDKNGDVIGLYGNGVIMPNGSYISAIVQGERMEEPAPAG
Starred values were filed as active, the others as inactive; i = inactive; . = no result given; + = active, no number. The list is partial (hit frequency here may not be typical).

SMILES	MT1-MMP reporter	Hsc70	WNV protease inh
Cc1cc(/C=C2\C(=N)N3C(SCc4ccccc4)=NSC3=NC2=O)c(C)n1Cc1ccccc1	i	-34%	.
Cn1c(=O)c2c(nc(N3CCCC3)n2CC(O)CO)n(C)c1=O (stereo unspecified)	i	-0.2%	1
O=C(Nn1nnnc1Nc1ccccc1)C12CC3CC(CC(C3)C1)C2	i	-0.7%	-0.24
CCCCCn1c(CN2CCCCC2C)nc2c1c(=O)n(C)c(=O)n2C (stereo unspecified)	i	4.6%	1.1
O=C(c1ccc(Br)o1)N1CCN(c2ccccn2)CC1	i	-2.8%	-1.1
CC(C)C1C2=C(CC(C)(C)CC2=O)ON1c1ccccc1 (stereo unspecified)	i	-0.9%	-0.17
O=C(Cn1nc(C(F)(F)F)c2c1CCCC2)Nc1ccc2c(c1)OCO2	i	4.1%	-0.79
Cc1ccc(-c2nn(C)c(=O)c3ccccc23)cc1S(=O)(=O)NCCN1CCOCC1	i	2.3%	-0.13
COc1ccc(CNc2ccc3c(c2)CCC3)cc1OC	i	1.1%	.
O=C(C1CCCN(S(=O)(=O)c2cccs2)C1)N1CCc2ccccc2C1 (stereo unspecified)	i	-2.0%	-0.33
CCOc1ccc(C2=NNC(c3cccs3)=Nc3ccc(OC)cc32)cc1	i	-0.4%	.
CC(C)OCCCNS(=O)(=O)c1ccc2c(c1)oc(=O)n2C	i	-0.1%	1.6
CCn1c(=N)c(C(N)=O)cc2c(=O)n3cccc(C)c3nc21	i	-6.7%	3.6
CCN(Cc1cc2ccccc2[nH]c1=O)C(=O)C1CCCCC1	i	-0.1%	0.48
CCNS(=O)(=O)c1ccc(S(=O)(=O)N(Cc2ccccn2)C2CCCCC2)cc1	i	-1.2%	-0.61
CCn1ncc(C2=NOC(C(=O)Nc3c(C)nn(Cc4ccc(F)cc4)c3C)C2)c1C (stereo unspecified)	i	5.6%	0.74
OCCNc1cc(-n2nc(-c3ccccc3)cc2-c2ccccc2)ncn1	i	2.0%	-0.88
Fc1ccccc1N1CCN(Cc2nc(-c3ccc(Cl)cc3Cl)no2)CC1	i	-2.7%	-0.49
CCOc1cc(C(=O)Nc2c(C)ccc3nsnc23)cc(OCC)c1OCC	i	0.6%	.
Cc1nc2c(c(=O)n1Cc1ccccc1Cl)c1nc3ccccc3nc1n2Cc1ccco1	i	-6.6%	0.19
CCCCn1c(SCC(=O)Nc2nnc(C)s2)nnc1-c1ccoc1C	i	-10%	-0.46
COc1ccccc1-c1cc(C(=O)NC(C)c2ccccc2)no1 (stereo unspecified)	i	2.0%	-0.89
O=c1[nH]c(=O)n(Cc2ccco2)c2c1C(C(F)(F)F)(C(F)(F)F)N=C(Cc1ccccc1)N2	i	-2.2%	.
COc1ccc(S(=O)(=O)Nc2cc(C)c(O)cc2C(C)C)cc1	i	5.9%	-1.3
O=S(=O)(c1ccc(Oc2ccccc2)cc1)N1CCOCC1	i	-1.1%	-0.67
c1ccc(-c2nn3nnnc3c3ccccc23)cc1	i	-5.7%	-1
COc1ccc(OC)c(Nc2cc(-c3ccccc3)nc(N)n2)c1	+	2.2%	-1
CN1C(=O)CC(P(=O)(c2ccccc2)c2ccccc2)N(C)C1=O (stereo unspecified)	i	1.9%	2.5
COC(=O)C1=C(N)Oc2cc(C)n(CCc3ccccc3)c(=O)c2C1c1cccnc1 (stereo unspecified)	i	0.5%	-0.55
COc1ccnc(N=CNOCc2ccc(C)cc2)c1C#N	i	-3.2%	.
CCCCN(C)Cc1c(O)ccc2c(-c3ccccc3)cc(=O)oc12	i	4.0%	-0.32
O=C(COC(=O)C1(c2ccccc2F)CCCC1)N1CCOCC1	i	-4.0%	.
CCOC(=O)c1sc(NC(=O)c2c(C)nn(Cc3ccccc3)c2C)cc1C	i	-4.6%	-0.38
O=C(C1CCN(S(=O)(=O)c2cccc3nsnc23)CC1)N1CCc2ccccc21	i	-4.7%	-0.05
Cc1nn(CCc2nn[nH]n2)c2nc(C(F)(F)F)cc(C(F)(F)F)c12	i	-0.5%	0.27
Cc1nc2cc(NC(=O)N3CCC(c4ccccc4)C3)ccc2n1C (stereo unspecified)	i	1.4%	0.86
COc1ccc(CCC(=O)NCc2ccco2)cc1	i	-2.6%	-0.2
Cc1cc(C)c2c(n1)nn1c(N3CCN(c4ccccc4C)CC3)cc(C)nc21	i	-1.2%	-0.68
CCOc1ccc(C2CC(c3ccc(F)cc3)n3ncnc3N2)cc1 (stereo unspecified)	i	2.0%	-1.6
O=C(O)CCc1ccc(-c2cccs2)n1Cc1ccco1	i	1.7%	-0.74
CCOC(=O)/C=C1\SCC(=O)N1CC(=O)Nc1ccc(C(C)C)cc1	i	3.5%	.
CCOc1ccc(OCC)c(NC(=O)C(NS(=O)(=O)c2ccc3c(c2)oc(=O)n3C)C(C)C)c1 (stereo unspecified)	i	-1.6%	0.67
Cc1c(Cl)cccc1NC(=O)c1cc(-c2ccccc2O)n[nH]1	i	1.6%	.
O=C(Nc1ccc(Cl)cc1)[C@@H]1[C@@H]2C(=O)N(c3ccc(Cl)cc3)C(=O)[C@@H]2[C@H]2C=CC=NN21	i	-0.1%	.
CCN(CC)C(=O)CSc1nnc(C2CCCCC2)o1	i	-0.3%	.
O=c1[nH]c2ccccc2nc1Cc1ccccc1	i	4.5%	-0.23
Cc1nn(CC(O)Cn2c3c(c4ccccc42)CCN(C)C3=O)c(C)c1Br (stereo unspecified)	i	-1.2%	-0.66
O=C(CNC(=O)c1ccco1)OCC(=O)c1ccccc1	i	4.5%	-0.48
CCC(c1nnnn1C1CCCC1)N1CCN(c2ccccc2)CC1 (stereo unspecified)	i	0.2%	2.7
C[C@@]12CC(=O)NC1N(C(=O)c1cccc(C(F)(F)F)c1)C(c1ccccc1OC(=O)c1cccc(C(F)(F)F)c1)C2 (stereo partly specified)	i	-5.3%	.
CC1(C)N=C(N)N=C(N)N1c1ccccc1	i	0.5%	.
Cc1c(C#N)c(N=CN(C)C)c(C(=O)c2ccc(Br)cc2)n1-c1ccc(Cl)cc1	i	-5.2%	.
O=C1c2ccccc2C(=O)N1CCCc1nc(-c2cccnc2)no1	i	-0.3%	0.12
Cc1nn2c3ccccc3nc2c2ccccc12	i	-6.2%	0.96
O=C(CSc1nnc(Cc2ccccc2)n1-c1cccc(Cl)c1)N1CCOCC1	i	2.9%	-0.84
CC1=CCC2C(=O)N(c3nc4ccccc4n3C)C(=O)C2C1 (stereo unspecified)	i	-2.9%	0.18
O=C1CN(C(=O)c2cccs2)c2ccccc2N1	i	11%	-0.76
Nc1nonc1C(=O)NCCNCc1ccccc1OCc1ccccc1F	i	-6.2%	-0.09
CS(=O)(=O)N(Cc1ccccc1)c1ccccc1C(=O)N1CCN(c2ccccc2)CC1	i	1.6%	.
Cn1c(-c2cc3ccc(OC(=O)C(C)(C)C)cc3oc2=O)nc2ccccc21	i	6.0%	.
Next part:
SMILES	MT1-MMP reporter	Hsc70	WNV protease inh
Cc1ccc(CNc2ccc(N3CCOCC3)cc2)s1	i	-1.2%	-0.35
CCOc1ccc(/C=C/C2=Cc3c(sc(NC(=O)CSc4n[nH]c(N)n4)c3C#N)C(C)(C)C2)cc1	i	-24%	.
CC(C)C(NC=C1C(=O)OC(C)(C)OC1=O)C(=O)O (stereo unspecified)	i	-1.3%	.
CCOC(=O)c1c(C)[nH]c(C(=O)COc2ccc3c(c2)OCO3)c1C	i	-4.0%	1.4
Cc1cc(C(=O)N2CCN(c3ccccc3)CC2)c(C)o1	i	2.7%	.
O=C(CN1CCN(C(=O)N2CCOCC2)CC1)Nc1ccc(Br)cc1	i	5.0%	-0.43
COc1ccc(CN(Cc2nc3ccccc3c(=O)[nH]2)C(=O)NC2CCCCC2)cc1	i	-5.6%	-0.29
COc1cc(CNc2cccc(F)c2)cc(Br)c1O	i	1.6%	-0.29
O=C(c1cc2c(=O)oc3ccccc3c2s1)N1CCN(c2ncccn2)CC1	i	-8.4%	-0.11
FC(F)Sc1ccc(NC(=S)NCC2CCCCC2)cc1	i	2.4%	.
CCn1c(=O)cc(SCC(=O)N2CCN(c3ccccc3OC)CC2)c2ccccc21	i	-4.7%	0.37
Cc1ccc(C(=O)NC2CCCCCC2)cc1N1CCCC1=O	i	-5.3%	-0.07
Cc1ccc(C(=O)c2cncc(Br)c2)cc1	i	-3.3%	-1.3
CCOC(=O)C1=C(CNCc2ccccc2Cl)NC(=O)NC1c1ccc2c(c1)OCO2 (stereo unspecified)	i	-0.7%	1.3
CCOc1ccc(NC(=O)CSC(N)=O)cc1	i	-4.9%	-0.45
COc1ccc(S(=O)(=O)N(C)CC(=O)Nc2ccc3c(c2)OCO3)cc1	i	-2.2%	.
O=C(Cn1nc(-c2ccccc2)ccc1=O)NCc1ccc2c(c1)OCO2	i	-8.1%	-0.96
COc1ccc2[nH]c(=O)c(CN(CC3CCCO3)C(=O)Nc3ccc(F)cc3)cc2c1 (stereo unspecified)	i	0.6%	0.45
NS(=O)(=O)c1ccc(NC(=O)N[C@@H](Cc2ccccc2)C(=O)O)cc1	i	-1.9%	-0.06
COc1ccc(-c2nc(-c3ccccc3OC)no2)cc1OC	i	-1.3%	-0.2
CCOc1ccc(-n2ccnc2SCC(=O)Nc2nnc(C)s2)cc1	i	-0.8%	0.21
Cc1cccc(-c2noc(CCCOc3ccc(Cl)cc3Cl)n2)c1	i	-7.1%	.
Cc1cccc(-c2nc(CS(=O)CC(=O)N3CCCCC3)c(C)o2)c1 (stereo unspecified)	i	0.9%	-0.68
CCN(CC)c1cccc(OC2=NS(=O)(=O)c3ccccc32)c1	i	1.2%	-1.3
CCOc1ccc2nc(NC(=O)c3cnccn3)sc2c1	i	-5.8%	-1.6
CC1CCN(C(=O)COC(=O)c2cc(Cl)cc(Cl)c2N)CC1	i	-6.3%	.
O/N=C1/CCc2cccc3cccc1c23	i	17%	0.4
COc1ccc(NC(=O)CCCN2C(=O)CCC2=O)cc1Cl	i	-0.2%	-0.29
Cc1sc(NC(=O)COc2cccc(-n3cnnn3)c2)c(C#N)c1C	i	1.2%	2.3
CCOC(=O)CC1(C)NC(=O)c2c(C)sc(C(=O)OCC)c2N1 (stereo unspecified)	i	0.5%	1.9
CCc1ccc(S(=O)(=O)NCc2cn3cccc(C)c3n2)s1	i	-1.5%	1.2
O=C(CSc1nnc(-c2ccco2)o1)NCC(=O)c1ccccc1	i	-1.7%	0.63
Cc1cc(N2CCOCC2)c2c(N)c(Br)cc(C)c2n1	i	-5.0%	-0.86
Cc1ccc(-c2oc3ccccc3c(=O)c2O)cc1	i	3.2%	0.13
CCOC(=O)c1c(NC(=O)CSc2ncn[nH]2)sc(C)c1C	i	6.1%	0.02
N#Cc1nc(-c2ccc(OCc3ccc(Cl)cc3)cc2)oc1NCCCn1ccnc1	i	-17%	-0.46
CC1=C(C(=O)N2CCOCC2)C(c2ccccc2F)C2=C(CC(C)(C)CC2=O)N1 (stereo unspecified)	i	0.8%	-0.27
COc1ccc(CC(=O)N2CCN(c3ccccn3)CC2)cc1OC	i	-3.4%	0.00024
COCCNC(=O)C(C)OC(=O)c1cc2sccc2n1C (stereo unspecified)	i	2.5%	.
Cc1nc2c(C(=O)NCc3ccc4c(c3)OCO4)c[nH]n2c(=O)c1Cc1ccccc1F	i	-5.2%	-0.9
COc1ccc2oc(=O)c(C(=O)N3CCN(c4ccc(F)cc4)CC3)cc2c1	i	-1.1%	0.46
O=C(Nc1ccccc1)C1CCN(c2nccs2)CC1	i	0.5%	-0.03
O=C(CSc1nnc(-c2ccc(F)cc2)o1)Nc1ccc(S(=O)(=O)N2CCCCCC2)cc1	i	0.3%	2.6
CCN(Cc1ccccc1)C(c1ccc(C)cc1)c1nnnn1C(C)(C)CC (stereo unspecified)	i	8.9%	.
c1ccc(CNc2ncnc3nc[nH]c23)nc1	i	1.2%	-0.5

Full records as entered above. Values in the order: MT1-MMP reporter, Hsc70, WNV protease inh
Cc1ccc(-c2oc3ccccc3c(=O)c2O)cc1 reads i, 3.2%, 0.13
COc1ccc(CCC(=O)NCc2ccco2)cc1 reads i, -2.6%, -0.2

Additional entries:
SMILES	MT1-MMP reporter	Hsc70	WNV protease inh
CS(=O)(=O)N1CCN(C(=O)c2cccnc2)CC1	i	-0.8%	0.6
c1ccc(CCNc2ncnc3scc(C4COc5ccccc5O4)c23)cc1 (stereo unspecified)	i	-5.2%	.
C=C(C)CSc1nc(N)cc(=O)[nH]1	i	0.0%	1.9
COC(=O)Cn1c(CN2CCN(c3ccc(F)cc3)CC2)nc2c1c(=O)n(C)c(=O)n2C	i	6.6%	-0.79
COCCNc1oc(-c2ccc(F)cc2)nc1C#N	i	-1.4%	-0.18

Ordered by formula weight (falling): some entries from above
SMILES	MT1-MMP reporter	Hsc70	WNV protease inh
c1ccc(CCNc2ncnc3scc(C4COc5ccccc5O4)c23)cc1 (stereo unspecified)	i	-5.2%	.
CS(=O)(=O)N1CCN(C(=O)c2cccnc2)CC1	i	-0.8%	0.6
c1ccc(CNc2ncnc3nc[nH]c23)nc1	i	1.2%	-0.5
C=C(C)CSc1nc(N)cc(=O)[nH]1	i	0.0%	1.9

Only WNV protease inh and MT1-MMP reporter, for four of the compounds above:
structure,WNV protease inh,MT1-MMP reporter
c1ccc(CCNc2ncnc3scc(C4COc5ccccc5O4)c23)cc1 (stereo unspecified),.,i
C=C(C)CSc1nc(N)cc(=O)[nH]1,1.9,i
COC(=O)Cn1c(CN2CCN(c3ccc(F)cc3)CC2)nc2c1c(=O)n(C)c(=O)n2C,-0.79,i
COCCNc1oc(-c2ccc(F)cc2)nc1C#N,-0.18,i
